Mtb H37Rv: M. tuberculosis H37Rv growth inhibitors, H37Rv strain (AID 1626); M. tuberculosis H37Rv growth inhibition; higher % means a stronger effect; one-dose inhibition, % at 10 µM; IC50 in µM for titrated hits; 220,000 tested, 0.95% active;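 active means confirmed in a dose series; inconclusive means inhibition above 80% but not taken into the dose series; inactive means below 80% or under 30% at every dose of the series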;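 further: bacteria incubated seven days before Alamar blue readout; 0% = bacteria only wells and 100% = bacteria with antibiotic wells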
YopH inh: inhibitors of Yersinia enterocolitica YopH tyrosine phosphatase | fluorescence Ex485/Em525 | inhibition, %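 (about 10 µM by stock and volumes)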 | 140,000 tested, 0.16% active | AID 898;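 active means inhibition of 50% or more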;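 further: controls were vehicle for no effect and minimum signal wells for full effect; inactives centre near -20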
Mtb bLac sens: beta-lactam sensitization of Mtb H37Rv; M. tuberculosis H37Rv growth with meropenem, percent inhibition; hits of this screen are not shown here; 330,000 tested, 0.27% active; inhibition, % at 25 µM;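 active means about 74% or more and at least 40 points above the plate without the antibiotic, then above 30% in a dose series; inconclusive means first-round hits that could not be retested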;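 further: growth measured after seven days incubation then overnight dye step; 0% = bacteria only wells and 100% = bacteria with antibiotic; twin plates without the antibiotic show which effects depend on it; some results filed as inactive read as strong as hits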
Arbovirus anti: arbovirus infection inhibition. arbovirus infection cell-based antiviral screen. inhibition, % at 10 µM. 200,000 tested, 0.37% active. AID 1251;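 active means inhibition from about 30%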;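 further: bluetongue infection of BSR cells; cell survival read as ATP light after 72 h; 0% = infected wells without compound and 100% = uninfected wells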
RecA intein inh: inhibitors of M. tuberculosis RecA intein splicing; P9WHJ3; cell-free RecA intein splicing, fluorescence; inhibition, %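 (about 9 µM by stock and volumes)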; 290,000 tested, 0.75% active; AID 2221; in the data active means inhibition above about 30%; inconclusive means no clear call, values can overlap the other calls;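 further: 0% = vehicle wells and 100% = reference inhibitor control wells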
Target sequence (P9WHJ3 whole entry, looked up): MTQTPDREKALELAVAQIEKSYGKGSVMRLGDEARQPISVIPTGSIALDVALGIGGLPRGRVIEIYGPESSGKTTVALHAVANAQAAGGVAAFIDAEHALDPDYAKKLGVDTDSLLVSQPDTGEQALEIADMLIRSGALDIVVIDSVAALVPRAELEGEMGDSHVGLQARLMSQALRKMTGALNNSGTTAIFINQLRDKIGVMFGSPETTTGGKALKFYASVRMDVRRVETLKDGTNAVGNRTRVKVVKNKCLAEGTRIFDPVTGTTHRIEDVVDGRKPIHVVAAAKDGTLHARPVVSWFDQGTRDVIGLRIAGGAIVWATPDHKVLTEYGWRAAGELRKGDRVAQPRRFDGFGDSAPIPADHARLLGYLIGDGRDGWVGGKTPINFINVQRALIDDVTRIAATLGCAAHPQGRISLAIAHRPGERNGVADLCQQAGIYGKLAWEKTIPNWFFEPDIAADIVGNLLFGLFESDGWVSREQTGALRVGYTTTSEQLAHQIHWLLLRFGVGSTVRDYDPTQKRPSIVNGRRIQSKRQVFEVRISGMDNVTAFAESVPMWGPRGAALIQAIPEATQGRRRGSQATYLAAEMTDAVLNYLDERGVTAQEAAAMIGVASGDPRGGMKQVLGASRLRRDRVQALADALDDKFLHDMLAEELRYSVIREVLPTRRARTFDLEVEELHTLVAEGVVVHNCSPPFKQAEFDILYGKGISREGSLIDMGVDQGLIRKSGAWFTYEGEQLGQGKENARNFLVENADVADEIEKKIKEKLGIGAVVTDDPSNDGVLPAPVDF
* = called active by the depositor; ? = inconclusive; . = not tested or not shown. Only part of the results is shown; rates above refer to the full screens.

#	molecule	Mtb H37Rv	YopH inh	Mtb bLac sens	Arbovirus anti	RecA intein inh
1	O=C(Sc1ccc(Cl)cc1)c1cccc(Cn2cc(C(F)(F)F)ccc2=O)c1	-1%	.	1	.	2.0
2	COc1cc(CN2CCN(C(=O)CC(C)C)CC2)cc(OC)c1O	1%	-8	-3	-1	-5.9
3	CC(C)(C)NC(=O)C1N(c2cccnc2)C(=O)C2C(C(=O)Nc3ccccc3)C3(C)C=CC21O3 (stereo not given)	2%	-22	1	5	-1.1
4	N#C/C(=C\c1cccc(O)c1)c1nc2ccccc2o1	-5%	.	-2	.	69*
5	Cc1ccc(NC(=O)CSc2nc3ccccc3c(=O)n2CCCN2CCCCC2)cc1Cl	3%	.	96	-28	5.1
6	CCC(=O)c1ccc(OCC(=O)OCC(=O)NC2CCCCCC2)cc1	.	.	5	.	-1.7
7	O=C(CN1CCS(=O)(=O)CC1)NNC(=O)C1CCCCC1	-9%	.	-10	2	.
8	O=c1[nH]c2ccccc2cc1CN(CC1CCCO1)S(=O)(=O)c1ccccc1 (stereo not given)	.	.	0	.	1.5
9	Cc1ccc(C(=O)COC(=O)C2C3C=CC(C3)C2C(=O)OCC(=O)c2ccc(C)c(C)c2)cc1C (stereo not given)	-8%	-8	-12	-22	-1.8
10	Cc1cc(NS(=O)(=O)c2ccc(NC(=O)c3cc4c(=O)n5ccccc5nc4s3)cc2)nc(C)n1	4%	.	.	-1	-58
11	O=S(=O)(c1ccc(OCC(O)CN2CCN(c3ccccc3Cl)CC2)cc1)N1CCOCC1 (stereo not given)	31%	-27	1	-5	1.3
12	Cc1ccc(OCC(=O)NCCNC(=O)COc2ccc(C)cc2)cc1	.	.	-1	.	2.0
13	CCOC(=O)c1c(C)oc2c1c(C=NCCC(=O)O)c(O)c1ccccc12	0%	.	1	-11	34*
14	O=C(Nc1cccc(/C=C/c2ccccn2)c1)c1cc(Cl)ccn1	.	.	6	.	3.6
15	O=C(NCc1ccc(F)cc1)C(=O)NCC1OCCN1S(=O)(=O)c1cccs1 (stereo not given)	7%	-34	-3	-1	3.7
16	Cc1cc(C)nc(N/N=C/c2cn[nH]c2-c2ccc(F)cc2)n1	-3%	.	-1	.	-3.7
17	COCCCNC(=O)Cn1ncc2c(=O)oc3ccccc3c21	-6%	-31	-12	0	-0.2
18	CCC(COC(C)=O)Nc1nc2c([nH]1)c(=O)n(C)c(=O)n2C (stereo not given)	-7%	.	-9	.	-7.7
19	CCCCN(C(=O)/C=C/c1ccco1)c1c(N)n(Cc2ccccc2)c(=O)[nH]c1=O	-2%	.	11	0	-2.7
20	O=C(O)/C(=C\c1ccccc1Cl)c1ccc(S(=O)(=O)N2CCCCC2)s1	-2%	-50	-1	13	4.3
21	Cc1noc(C)c1C(=O)OCC(=O)Nc1ccccc1C(=O)NC(C)c1ccccc1 (stereo not given)	-15%	6	-8	-13	0.3
22	O=C(N/N=C/c1ccc(OC(=O)c2ccco2)cc1)c1ccccn1	62%	.	84	-5	4.7
23	COc1ccccc1C1C(C(=O)c2ccco2)=C(O)C(=O)N1c1cc(C)on1 (stereo not given)	.	.	-7	.	0.3
24	O=C(c1ccc(S(=O)(=O)N2CCOCC2)cc1)N1CCN(c2cccc(Cl)c2)CC1	-7%	5	2	16	-1.9
25	COc1ccc(C2=NCC(CSc3nnc(-c4ccc5c(c4)OCO5)o3)S2)cc1 (stereo not given)	-12%	-18	?	8	0.5
26	O=C(NNC(=S)NCCCN1CCOCC1)c1ccncc1	20%	.	-1	1	.
27	COC(=O)c1sc2nc[nH]c(=O)c2c1C	.	-4	-4	2	1.0
28	Cc1ccc(C)c(C(=O)N(C)CC(=O)Nc2ccccc2C(F)(F)F)c1	-7%	.	3	6	-2.1
29	CCC(Oc1ccc(C)c(C)c1)C(=O)N1CCCN(C)CC1 (stereo not given)	.	.	-19	.	-0.4
30	COc1cc(/C=C2\SC(c3ccc(C)cc3)=NC2=O)ccc1O	-6%	-26	3	-8	3.2
31	O=C(/C=C1\SC(=O)N(CC(=O)Nc2ccc(Cl)cc2)C1=O)Nc1ccc(F)cc1	3%	-16	-4	7	0.6
32	N#Cc1nc(COc2ccccc2F)oc1N1CCCCCC1	8%	5	3	4	.
33	CCCc1nc(NCc2ccc3c(c2)OCO3)c2nnn(Cc3ccccc3Cl)c2n1	21%	9	49	-16	1.8
34	CCN(CC)c1ccc(/C=C(\C#N)C(N)=S)cc1	-2%	.	1	.	2.8
35	O=C(CCc1nnc(CCCCc2ccccc2)o1)NC1CCCC1	-5%	.	1	-2	-0.2
36	COC(=O)c1ccc(CN2CCCC(CO)(Cc3ccc(F)cc3F)C2)cc1 (stereo not given)	.	.	-4	.	0.2
37	CCOc1ccc(NC(=O)CSCc2cnn(-c3ccccc3)c2-n2cccc2)cc1	-3%	-4	10	4	4.5
38	C=C(C(=O)O)C(CCCCCC)C(=O)O (stereo not given)	-2%	.	2	7	-1.0
39	COc1ccccc1C(=O)Nc1nnc(SCC(=O)Nc2ccc3c(c2)oc2ccccc23)s1	0%	-16	5	-29	-5.6
40	CC(=O)c1ccc(OCC(=O)NC(=O)NC2CCCCC2)cc1	.	.	-7	.	2.4
41	O=C(NCc1nnc(SCc2ccccc2)n1-c1ccc(F)cc1)C12CC3CC(CC(C3)C1)C2	.	-25	65	-6	2.6
42	CC(=O)c1ccc2c(c1)C1C(Cl)C(Sc3ccccc3[N+](=O)[O-])CC1C(c1ccccc1[N+](=O)[O-])N2 (stereo not given)	7%	-16	-1	6	20
43	Cc1cc(=O)oc2cc(OCC(=O)N3CCc4ccccc4C3)ccc12	-5%	-43	-6	2	-1.4
44	CCC(NC(=O)Nc1ccc(O)cc1)(C(F)(F)F)C(F)(F)F	7%	-16	-4	-23	.
45	COc1ccc(C(C)=O)cc1CSc1nc2cc(C(=O)O)ccc2c(=O)n1Cc1ccccc1	-6%	-34	4	-13	2.1
46	CCC(C)[C@H](NC(=O)CCn1nnc2ccccc2c1=O)C(=O)O (stereo not given in full)	-3%	-16	-3	-1	0.4
47	CC(C)NC(=O)C1CCN(c2ccc(S(=O)(=O)N3CCOCC3)cc2Cl)CC1	10%	.	0	.	-1.4
48	Cc1ccccc1-n1ncc2c1CC(C)(C)CC2NC(=O)CN1CCCC1=O (stereo not given)	.	.	-2	.	0.8
49	CCN(CC)N=Nc1ccc(S(N)(=O)=O)cc1	-4%	.	-10	-5	1.2
50	COc1ccc(-n2c(C)c(C)c3c(NCCCN(C)C)ncnc32)cc1	.	.	9	.	-1.0
51	COc1cc(CC(NC(C)=O)C(=O)NC2CCN(C(=O)c3ccc(C)cc3)CC2)cc(OC)c1 (stereo not given)	.	.	2	.	-0.7
52	Cc1ccccc1C(=O)NNC(=O)CN1C(=O)c2ccccc2C1=O	-2%	-31	-4	-13	-0.4
53	O=S(=O)(Nc1ccccc1)c1ccc(Oc2ncc(C(F)(F)F)cc2Cl)cc1	0%	1	-6	-39	7.2
54	CCc1nnc(NC(=O)CCC(=O)Nc2ccc(Cl)cc2)s1	.	.	-1	.	-0.3
55	CCCOP(=O)(c1ccccc1)c1ccccc1	-3%	-37	2	-6	4.4
56	C/C(=N/NC(=O)C1CC1(c1ccccc1)c1ccccc1)c1ccco1 (stereo not given)	19%	-24	-5	19	-1.1
57	O=C(NCCS(=O)(=O)N1CCN(c2ccc(F)cc2)CC1)c1ccco1	.	.	-15	.	-2.2
58	Cc1cc(NC(=O)C(Cl)c2ccccc2)no1 (stereo not given)	.	.	5	.	7.1
59	COc1ccc(C(=O)NC(=S)NNC(=O)c2ccc(NC(=O)C(C)C)cc2)cc1	72%	-34	30	-17	1.2
60	COc1ccc(OC)c(NC(=O)c2nc(S(=O)(=O)Cc3ccccc3)ncc2Cl)c1	.	.	76	.	28

Next records follow.
#	molecule	Mtb H37Rv	YopH inh	Mtb bLac sens	Arbovirus anti	RecA intein inh
61	Cc1cc(C)n(CCSCC(=O)O)n1	-7%	-17	4	-1	0.9
62	Cc1ccc2c(c1)sc1ncc(NC(=O)c3ccc(F)cc3)c(=O)n12	1%	.	0	-9	3.3
63	COc1ccc(-c2[nH]ncc2CNCC(C)(C)N2CCOCC2)cc1F	-6%	.	-7	1	0.7
64	Nc1c(C(=O)Nc2ccccc2)c2nc3ccccc3nc2n1-c1ccc(O)cc1	8%	.	12	.	0.2
65	CCCn1nnc(NC(=O)c2ccco2)n1	-6%	6	-2	-1	-1.0
66	CC(C)(C)c1ccc(S(=O)(=O)N2CCSC2)cc1	-7%	-26	0	7	-4.2
67	CCN(CC)S(=O)(=O)c1cc(C(=O)N=c2sccn2C)ccc1OC	.	.	?	.	1.7
68	CCOc1ccc(CNC(=O)c2cccc(NC(=O)C3=C(C)OCCS3)c2)cc1	.	.	-2	.	2.5
69	CC(=O)Nc1ccc(S(=O)(=O)N2CCCC(C(=O)O)C2)cc1 (stereo not given)	1%	.	11	-1	0.4
70	O=C(NCCc1nnc2ccc(NCCCN3CCOCC3)nn12)c1ccccc1	.	.	-5	.	-0.5
71	COc1ccccc1-n1c(=O)c2c3c(sc2n2c(SC(C)C)nnc12)CCC3	6%	-17	1	-6	-1.7
72	COc1cc(/C=N/NC(=O)c2ccc(COc3ccccc3Cl)o2)cc(Br)c1O	5%	-34	6	1	10
73	CNCCCC1c2ccccc2C=Cc2ccccc21	0%	-12	-2	-43	0.4
74	O=C(CN1C(=O)NC(CCc2ccccc2)C1=O)NC1CC1 (stereo not given)	3%	.	-2	19	1.7
75	CC1C/C(=N/NC(=O)c2cccc(F)c2)c2ccc(O)cc2C1 (stereo not given)	0%	-36	?	-7	-0.2
76	COc1ccc(S(=O)(=O)N2CCN(CC(O)COc3ccc(C#N)cc3)CC2)cc1OC (stereo not given)	.	.	3	.	0.7
77	O=C(C[n+]1cccc(/C=N/O)c1)N1CCCCCC1	5%	.	-1	6	-1.9
78	O=C(/C=C/Nc1ccccc1C(F)(F)F)c1ccco1	6%	.	-3	1	-9.2
79	O=C(c1ccc(OC2CCN(CCc3ccccc3)CC2)cc1)N1CCC(CO)CC1	.	.	0	.	0.7
80	O=P(O)(O)C12CC3CC(CC(C3)C1)C2	2%	-29	-5	1	-2.5

Quoted from above, compounds 1–13
#	molecule	Mtb H37Rv	YopH inh	Mtb bLac sens	Arbovirus anti	RecA intein inh
1	O=C(Sc1ccc(Cl)cc1)c1cccc(Cn2cc(C(F)(F)F)ccc2=O)c1	-1%	.	1	.	2.0
2	COc1cc(CN2CCN(C(=O)CC(C)C)CC2)cc(OC)c1O	1%	-8	-3	-1	-5.9
3	CC(C)(C)NC(=O)C1N(c2cccnc2)C(=O)C2C(C(=O)Nc3ccccc3)C3(C)C=CC21O3 (stereo not given)	2%	-22	1	5	-1.1
4	N#C/C(=C\c1cccc(O)c1)c1nc2ccccc2o1	-5%	.	-2	.	69*
5	Cc1ccc(NC(=O)CSc2nc3ccccc3c(=O)n2CCCN2CCCCC2)cc1Cl	3%	.	96	-28	5.1
6	CCC(=O)c1ccc(OCC(=O)OCC(=O)NC2CCCCCC2)cc1	.	.	5	.	-1.7
7	O=C(CN1CCS(=O)(=O)CC1)NNC(=O)C1CCCCC1	-9%	.	-10	2	.
8	O=c1[nH]c2ccccc2cc1CN(CC1CCCO1)S(=O)(=O)c1ccccc1 (stereo not given)	.	.	0	.	1.5
9	Cc1ccc(C(=O)COC(=O)C2C3C=CC(C3)C2C(=O)OCC(=O)c2ccc(C)c(C)c2)cc1C (stereo not given)	-8%	-8	-12	-22	-1.8
10	Cc1cc(NS(=O)(=O)c2ccc(NC(=O)c3cc4c(=O)n5ccccc5nc4s3)cc2)nc(C)n1	4%	.	.	-1	-58
11	O=S(=O)(c1ccc(OCC(O)CN2CCN(c3ccccc3Cl)CC2)cc1)N1CCOCC1 (stereo not given)	31%	-27	1	-5	1.3
12	Cc1ccc(OCC(=O)NCCNC(=O)COc2ccc(C)cc2)cc1	.	.	-1	.	2.0
13	CCOC(=O)c1c(C)oc2c1c(C=NCCC(=O)O)c(O)c1ccccc12	0%	.	1	-11	34*

Screening data deposited in PubChem by several laboratories.
